GLA inh pH 4.5: inhibitors of human alpha-galactosidase A at pH 4.5; purified enzyme, 4-MU-alpha-Gal fluorescence, pH 4.5; 230,000 tested, under 10 active; activity change, negative = inhibition, % at 105 µM; inconclusive = small, poorly fitted or top-dose-only inhibition, or a rising curve; inactive = flat fitted curve, though single readings scatter; no compound was filed as active;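 also: 0% = full activity with enzyme and -100% = basal without enzyme; dose as in the result columns while the protocol names 77 µM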
Target sequence (P06280 whole entry, looked up): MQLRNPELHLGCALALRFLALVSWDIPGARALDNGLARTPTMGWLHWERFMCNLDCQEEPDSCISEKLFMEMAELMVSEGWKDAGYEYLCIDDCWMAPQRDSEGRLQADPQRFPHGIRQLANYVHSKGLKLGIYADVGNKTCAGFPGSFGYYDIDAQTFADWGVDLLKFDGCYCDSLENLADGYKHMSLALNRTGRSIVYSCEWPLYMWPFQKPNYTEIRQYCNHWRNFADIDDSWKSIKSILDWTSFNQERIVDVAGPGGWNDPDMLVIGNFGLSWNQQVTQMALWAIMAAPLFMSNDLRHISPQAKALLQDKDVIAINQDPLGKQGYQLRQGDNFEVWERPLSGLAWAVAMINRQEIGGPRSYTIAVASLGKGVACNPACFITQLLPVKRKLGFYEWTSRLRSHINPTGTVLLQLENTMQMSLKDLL
miR-21 FLuc: miR-21 reporter, rising signal; 340,000 tested, under 10 active; AID 2288; Potency, µM (doses to about 38.3 µM), inactives show at the highest dose reporter change, positive = more light; HeLa miR-21 FLuc reporter, luciferase, 48 h; active = well fitted rising curve with a large enough effect; inconclusive = small, poorly fitted or top-dose-only effect; inactive = no such curve, though single readings can be large or run the other way;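 also: % of control where 0% means no effect; miR-21 action dims this reporter so a rising signal means less miR-21 action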
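Luminescence from a firefly luciferase reporter carrying a miR-21 binding site downstream, stably expressed under a CMV promoter in HeLa cells that make miR-21 endogenously, reports miRNA modulation after 48 h compound exposure up to approximately 40uM final.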
Rango dissoc inh: inhibition of RanGTP-driven Rango-importin beta dissociation; O95149+P62826; Biochemical FRET Rango-importin beta, RanGTP-induced dissociation; Potency, µM (highest dose often 46.1 µM), inactives show at the highest dose activity change, negative = inhibition; 340,000 tested, 0.071% active; AID 540253; active means falling FRET ratio curve, often poorly fitted, with flat reads before Ran was added; inconclusive means other falling curves, or compound fluorescence or quenching; inactive means flat or rising ratio curve;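 also: potency is read from the fitted curve at half-maximal effect; % of control where 0% means no effect; nearly all actives have a fitted effect of over 45% in size; -100% = wells without RanGTP and RCC1; the record marks most hits as doubtful in a second field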
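Compounds preincubate 5 min with complex of recombinant Rango and importin beta in PBS with 1 mM DTT. Ran (0.6 uM) loaded with 2 mM GTP plus 0.2 uM RCC1 starts dissociation; FRET is recorded 45 min later.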
Rango complex inh: inhibitors of Rango-importin beta complex formation. 340,000 tested, 0.031% active. Rango CFP/YFP FRET sensor + importin beta, 45 min. Q14974. Potency, µM (titrated, usually from 92.2 µM), for inactives: at the highest dose inhibition of complex formation; active = rising FRET ratio curve, often small or poorly fitted; inconclusive = mostly compound fluorescence or quenching in the first reads; inactive = flat curves in all reads;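 also: potency is read from the fitted curve at half-maximal effect; 0% = DMSO wells and 100% = buffer wells lacking importin beta; nearly all actives have a fitted effect of over 15% in size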
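Inhibition scored from the CFP 486 nm/YFP 530 nm FRET ratio 45 min after adding 0.125 microM importin beta to 50 nM Rango biosensor preincubated 5 min with compound (room temperature, PBS with DTT, Tween-20, BSA). No-importin wells as positive control.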
Starred values were filed as active, the others as inactive; ? = inconclusive; / = no result given; & = joins results of further samples.

nr	GLA inh pH 4.5	miR-21 FLuc	Rango dissoc inh	Rango complex inh	Compound
1	3	-3%	-8%	0.2%	CCOc1cc(C(=O)O)cc(Cl)c1OC
2	13	-2%	-27%	3.0%	CC(=Nc1ccccc1C)C1=C(O)CSC1=O
3	1	-11%	-1%	-1.4%	CCOc1ccccc1C(=O)Nc1nccs1
4	/	-4%	0%	-0.1%	COc1cc(NC(=O)c2ccc3c(c2)OCCO3)ccc1NC(=O)c1ccccc1Cl
5	4	-4%	10%	-1.4%	COc1ccc(/C=N/N(C(C)=O)c2nc(-c3ccc(C)cc3)cs2)cc1
6	-4&3	-40%&-28%	1%&-2%	-2.3%&0.1%	Fc1ccc(SCCc2ccccn2)cc1
7	-24	-35%	2%	-0.1%	Cn1c(SCC(=O)c2ccc(O)c(O)c2)nnc1-c1cccs1
8	/	1%	-11%	-1.8%	CCCCNC(=O)[C@H]1C[C@H]1[C@@H](O)[C@H](CO)NC(=O)[C@H](CC(C)C)NC(=O)OC(C)(C)C
9	0	-26%	?	?	CC(=O)Nc1nc2n(n1)C(c1ccccc1)C=C(c1ccccc1)N2 (stereo not drawn)
10	0	-1%	?	?	CC(=O)N1CCn2c3c(c(=O)c4cc(C)ccc42)CCC31 (stereo not drawn)
11	/	6%	1%	3.0%	O=S(=O)(NC1CCCCC1N1CCN(c2ccccc2F)CC1)c1ccccc1 (stereo not drawn)
12	/	/	28%	-3.5%	CC(NC(=O)c1ccc2c(=O)n3c(nc2c1)CCC3)c1ccc(S(N)(=O)=O)cc1 (stereo not drawn)
13	6	-6%	0%	-0.7%	O=C(OCCN1CCCCC1)c1ccc(O)cc1
14	-1	0%	1%	1.9%	Cc1ccc(S(=O)(=O)Nc2ccc(N3CCCCC3)cc2)cc1
15	2	-4%	9%	0.6%	COc1ccc2c(Cl)c(C(=O)NN)sc2c1
16	-5	3%	15%	0.2%	O=C(Oc1ccc(C(=S)N2CCC(O)CC2)cc1)c1ccc(Cl)cc1
17	/	/	-15%	-0.3%	CO[C@H]1O[C@H](CBr)[C@@H](OC(=O)c2ccccc2)[C@H](O)[C@H]1O
18	/	/	47%	0.2%	O=C1NC[C@H](Cc2ccccc2)N(CC2CCN(CCc3ccccc3)CC2)C1=O
19	/	-13%	-3%	0.9%	Cc1ccc(NC(=O)CN(C)S(=O)(=O)c2ccc3[nH]c(=O)oc3c2)c(C)c1
20	9	-17%	4%	1.4%	COC(=O)c1ccccc1NC(=O)CSc1nnnn1C1CCCCC1
21	0	2%	21%	1.0%	CCn1c(=O)c([N+](=O)[O-])c(Cl)c2ccccc21
22	3	-2%	-14%	-0.1%	CCn1cc(-c2cc(C(F)(F)F)n3nc(C(=O)O)cc3n2)c(C)n1
23	-3	-4%	0%	0.2%	Cc1nn(-c2ccccn2)c2c1C(c1ccccc1Cl)C1=C(N2)c2ccccc2C1=O (stereo not drawn)
24	-6	-11%	7%	-3.7%	Cc1cc(NC(=O)CSc2nnc(N)s2)c([N+](=O)[O-])cc1C
25	8	1%	9%	-4.2%	CCC(C)(C)NC(=O)/C=C/c1cc(OC)c(OC)c(S(=O)(=O)N2CCc3ccccc32)c1
26	10	2%	-1%	-1.7%	CCOc1cc(-c2noc(CCC(=O)Nc3cccnc3)n2)ccc1OC
27	/	/	18%	3.5%	C[C@@]12C(=O)N(c3cccc(Cl)c3)C(=O)N1[C@H](c1ccc(Cl)cc1)[C@@H]1C(=O)N(C3CCCCC3)C(=O)[C@@H]12
28	-15	-13%	-13%	0.8%	COc1ccc(N2C(=O)CC(Sc3n[nH]c(-c4ccc(C)cc4)n3)C2=O)cc1 (stereo not drawn)
29	3	0%	1%	2.9%	CCN(CC)C(=O)CN(c1cccc(OC)c1)S(=O)(=O)c1ccc(C)cc1
30	7	-62%	-8%	1.9%	O=C(COc1ccc2c(c1)OCO2)Nc1ccccc1C(F)(F)F

(cont.)
nr	GLA inh pH 4.5	miR-21 FLuc	Rango dissoc inh	Rango complex inh	Compound
31	/	/	16%	-1.9%	COC(=O)[C@@]12CCCCN1[C@H](c1ccc(-c3ccc(F)cc3)cc1)[C@H]1C(=O)N(C)C(=O)[C@H]12
32	1	8%	-9%	-1.0%	Cc1cc(C(=O)C(=O)N(C)C)c(C)n1-c1ccc(Cl)c(Cl)c1
33	5	-6%	-13%	2.9%	CCOC(=O)c1cccnc1SC(CC)C(=O)N1CCOCC1 (stereo not drawn)
34	0	-6%	-5%	-5.5%	CN1CCN(C(CNS(=O)(=O)c2ccc(Cl)cc2)c2cccnc2)CC1 (stereo not drawn)
35	-27	-37%	-21%	-2.2%	CCCCCC(=O)c1c(C)[nH]c(C(=O)OCC)c1C
36	/	23%	25%	-0.1%	Cc1cccc(N2CC(C(=O)Nc3ccc(S(=O)(=O)N4CCCCC4)cc3)CC2=O)c1C (stereo not drawn)
37	/	0%	9%	0.3%	Cc1ccc(-n2nnc3c(=O)n(CC(N)=O)cnc32)cc1
38	-4	-5%	5%	0.0%	CC(NC(=O)CN1CCC(C(N)=O)CC1)c1ccccc1 (stereo not drawn)
39	4	13%	-3%	-1.3%	O=C(Nc1cccc(F)c1)N1CCC(n2c(=O)[nH]c3ccccc32)CC1
40	/	-1%	-13%	-0.2%	CCOc1ccc(/C=N/NC(=O)c2cc3c(OC)cc(OC)cc3[nH]2)cc1OC
41	2	-2%	-3%	0.1%	CCN(c1ccccc1)S(=O)(=O)c1ccc(Cl)c(NC(=O)COC(=O)c2ccc[n+]([O-])c2)c1
42	/	1%	3%	-2.5%	COc1cc(/C=N/NS(=O)(=O)c2ccccc2)c(OC)c(OC)c1
43	3	1%	-10%	-3.5%	O=C(COC(=O)/C=C/c1cccc(F)c1)Nc1ccccc1-c1ccccc1
44	/	/	-9%	?	O=C(COC(=O)C1=COCCO1)Nc1cc(C(F)(F)F)ccc1Cl
45	/	-1%	21%	0.8%	COc1ccc(-c2cc(C(=O)N3CCN(c4ccccc4OC)CC3)no2)cc1
46	-1	24%	-7%	-1.0%	Cc1ccc(C(NC(=O)NCCCN2CCOCC2)=C(Cl)Cl)cc1F
47	/	-3%	-16%	-5.2%	COc1cc(CN2CCN(CC#Cc3ccccc3)CC2CCO)cc(OC)c1 (stereo not drawn)
48	/	-1%	0%	0.1%	O=C(COC(=O)CSc1ccccc1)NNC(=O)c1ccc([N+](=O)[O-])cc1
49	/	-8%	-6%	-2.2%	COc1ccc(C(=O)NC2CC2)cc1OC1CCN(C/C=C/c2ccccc2)CC1
50	4	6%	/	/	COc1ccc(C(CC(=O)N2CCN(c3ccccc3)CC2)c2c(OC)cc(OC)c3c(-c4ccccc4)cc(=O)oc23)cc1 (stereo not drawn)
51	2	-2%	-2%	-3.5%	CC(NS(=O)(=O)c1ccc(CCC(=O)NCC2CCCO2)cc1)c1ccccc1 (stereo not drawn)
52	-3	-5%	0%	-2.9%	CCOC(=O)c1c(CN2CCCCC2)n(C)c2cc(Br)c(OC)cc12
53	-2	-3%	12%	2.0%	Nc1nc(SCC(=O)NC2CCCCCC2)[nH]c(=O)c1-c1ccccc1
54	-1	-2%	31%	0.3%	C=CCSc1nnc(NC(=O)c2nc(SCC)ncc2Cl)s1
55	-27	2%	-1%	-6.2%	NC(=O)C(c1ccc(Cl)cc1)c1ncc(C(F)(F)F)cc1Cl (stereo not drawn)
56	-5	-1%	25%	5.0%	CCCCNC(=S)Nc1cc([N+](=O)[O-])ccc1C
57	-2	-6%	2%	-0.4%	COc1ccc(NC(=O)C2CCN(c3nc(C)cc(C)n3)CC2)cc1
58	/	/	-9%	-2.7%	CC(C)(C)OC(=O)N[C@H](C(=O)OC(C)(C)C)c1ccc(C(F)(F)F)cc1
59	2	-1%	6%	-5.7%	COc1cc(/C=C2/NC(=O)NC2=O)cc(Br)c1OCc1ccc(C(=O)O)cc1
60	4	-3%	/	/	O=[N+]([O-])c1cc(C(F)(F)F)ccc1N/N=C/c1cc2ccccc2nc1Cl

Full records, quoted from the list. Values in the order: GLA inh pH 4.5	miR-21 FLuc	Rango dissoc inh	Rango complex inh
Shown for CC(C)(C)OC(=O)N[C@H](C(=O)OC(C)(C)C)c1ccc(C(F)(F)F)cc1 → /	/	-9%	-2.7%
Shown for CO[C@H]1O[C@H](CBr)[C@@H](OC(=O)c2ccccc2)[C@H](O)[C@H]1O → /	/	-15%	-0.3%
Shown for O=C(COC(=O)/C=C/c1cccc(F)c1)Nc1ccccc1-c1ccccc1 → 3	1%	-10%	-3.5%
Shown for CCn1c(=O)c([N+](=O)[O-])c(Cl)c2ccccc21 → 0	2%	21%	1.0%
Shown for CC(NC(=O)c1ccc2c(=O)n3c(nc2c1)CCC3)c1ccc(S(N)(=O)=O)cc1 (stereo not drawn) → /	/	28%	-3.5%

(continued)
nr	GLA inh pH 4.5	miR-21 FLuc	Rango dissoc inh	Rango complex inh	Compound
61	/	3%&-3%	-19%	-0.6%	CCOc1ccccc1NC(=O)CN1C(=O)COc2ccc(S(=O)(=O)N3CCOCC3)cc21
62	/	3%	9%	-2.2%	NS(=O)(=O)c1ccc(NC(=O)c2cccc(N3C(=O)c4ccccc4C3=O)c2)cc1
63	-2	2%	-19%	?	COC(=O)CCCCC1SCC2NC(=O)NC21O (stereo not drawn)
64	-11	-2%	-22%	-0.9%	CC(C)Nc1nc(Oc2ccc(Cl)cc2Cl)cc(C(F)(F)F)n1
65	0	-5%	-7%	0.0%	CCOc1ccccc1N(CC(=O)NC1CCCCC1)C(=O)CNC(=O)c1ccco1
66	10	-2%	0%	1.9%	COC(=O)c1cc2sc(Cl)cc2n1CC(=O)NCC1CCCO1 (stereo not drawn)
67	/	/	-3%	2.3%	CCN(C(=O)c1cccs1)C1CCS(=O)(=O)C1 (stereo not drawn)
68	-17	-4%	-4%	3.4%	COc1ccc(NCc2nnc(SCc3ccccc3)n2-c2ccc(OC)cc2)cc1
69	/	0%	-2%	3.1%	NC(Cc1ccccc1)C(=O)N1CCCCC1 (stereo not drawn)
70	/	-2%	-6%	-0.6%	Cc1nn(C(C)C(=O)NCCCc2ccccc2)c(=O)c2nn(-c3ccccc3)c(C)c12 (stereo not drawn)
71	/	4%	1%	0.9%	Cc1ccccc1C(=O)Nc1ccccc1C(=O)NCC(C)C
72	14	-1%	24%	-5.4%	O=C(NCCNC1CCC(c2ccccc2)CC1)c1ccc(F)cc1 (stereo not drawn)
73	/	0%	6%	-1.3%	COc1ccccc1C(=O)Nc1ccnn1C1CCN(CCCC2CCCC2)CC1
74	5	-15%	-5%	-0.3%	COc1cc(NC(=S)N2CCC(C(O)(c3ccccc3)c3ccccc3)CC2)cc(OC)c1
75	-18	22%	-1%	0.2%	O=C(Nc1nc2ccc(S(=O)(=O)N3CCCC3)cc2s1)C1CCCCC1
76	-9	-1%	9%	1.7%	COc1ccc2nc3ccccc3nc2c1N
77	/	0%	-3%	-2.7%	Cc1ccn(CC(=O)N2CCCC(N3CCN(c4ccc(F)cc4)CC3)C2)n1 (stereo not drawn)
78	-5	2%	13%	0.0%	CCCn1c(=S)[nH]c2ccccc2c1=O
79	/	-1%	-9%	-2.7%	CCOC(=O)N1CCN(C(=O)CN(C)S(=O)(=O)c2ccc(Cl)cc2)CC1
80	13	7%	0%	4.9%	CC(C)Cn1c(S(=O)(=O)O)nc2ccccc21
81	/	-21%	-2%	?	O=C(/C=C/c1ccco1)NC(=S)N1CCCCC1
82	-6	8%	2%	-3.0%	O=C(Nc1cccc(Cl)c1)c1ccc(F)c(S(=O)(=O)NCc2ccc3c(c2)OCO3)c1
83	-8	-47%	-12%	1.6%	CNC(=O)c1ccc(-c2ccc(Cl)c(Cl)c2)s1
84	/	-3%	-9%	0.2%	CNS(=O)(=O)c1cccc(C(=O)OCC(=O)N2CCCC2)c1
85	3	-3%	4%	0.1%	Cc1onc(-c2c(F)cccc2Cl)c1C(=O)Nc1nnc(-c2ccccc2)s1
86	6	-1%	3%	1.7%	CCc1nc2cc(C)nn2c2nc3ccccc3n12
87	5	-4%	22%	3.5%	Cc1ccc(NC(=O)C2C3CCCC2C3c2ccccc2)cc1 (stereo not drawn)

A portion of the library; count on the stated rates, not on these rows.
